Screening results deposited in PubChem BioAssay by National Center for Advancing Translational Sciences (NCATS).
Rango dissoc inh = inhibitors of RanGTP-induced Rango-importin beta complex dissociation; Potency, µM (series often up to 46.1 µM), for the others: at the highest dose activity change, negative = inhibition; 340,000 compounds, 0.071% hits; AID 540253; O95149+P62826; Biochemical FRET Rango-importin beta, RanGTP-induced dissociation; active means falling FRET ratio curve, often poorly fitted, with flat reads before Ran was added; inconclusive means other falling curves, or compound fluorescence or quenching; inactive means flat or rising ratio curve;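 note: potency is the fitted concentration of half-maximal effect; % of control where 0% means no effect; nearly all actives have a fitted effect of over 45% in size; -100% = wells without RanGTP and RCC1; the record marks most hits as doubtful in a second field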
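Rango FRET biosensor (snurportin-1 IBB flanked by N-terminal EYFP and C-terminal CFP10) at 0.1 uM, with 0.25 uM importin beta in PBS, 1mM DTT, 0.02% Tween-20, 0.1% BSA. 0.6 uM Ran, 2mM GTP and 0.2 uM RCC1 were then added for 45 min at room temperature. Inhibition read as loss of FRET rise.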
GLA inh pH 4.5 = blocks human alpha-galactosidase A at pH 4.5. P06280. purified enzyme, 4-MU-alpha-Gal fluorescence, pH 4.5. activity change, negative = inhibition, % at 105 µM. 230,000 tested, under 10 active. AID 1467; inconclusive = small, poorly fitted or top-dose-only inhibition, or a rising curve; inactive = flat fitted curve, though single readings scatter; no compound was filed as active;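 note: 0% = full activity with enzyme and -100% = basal without enzyme; dose as in the result columns while the protocol names 77 µM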
Rango complex inh = Rango-importin beta binding inhibition. Q14974. Rango CFP/YFP FRET sensor + importin beta, 45 min. Potency, µM (titrated, usually from 92.2 µM), for the others: at the top dose inhibition of complex formation. 340,000 compounds, 0.031% hits; active = rising FRET ratio curve, often small or poorly fitted; inconclusive = mostly compound fluorescence or quenching in the first reads; inactive = flat curves in all reads;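 note: potency is the fitted concentration of half-maximal effect; 0% = DMSO wells and 100% = buffer wells lacking importin beta; nearly all actives have a fitted effect of over 15% in size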
Target sequence (Q14974 whole entry, looked up): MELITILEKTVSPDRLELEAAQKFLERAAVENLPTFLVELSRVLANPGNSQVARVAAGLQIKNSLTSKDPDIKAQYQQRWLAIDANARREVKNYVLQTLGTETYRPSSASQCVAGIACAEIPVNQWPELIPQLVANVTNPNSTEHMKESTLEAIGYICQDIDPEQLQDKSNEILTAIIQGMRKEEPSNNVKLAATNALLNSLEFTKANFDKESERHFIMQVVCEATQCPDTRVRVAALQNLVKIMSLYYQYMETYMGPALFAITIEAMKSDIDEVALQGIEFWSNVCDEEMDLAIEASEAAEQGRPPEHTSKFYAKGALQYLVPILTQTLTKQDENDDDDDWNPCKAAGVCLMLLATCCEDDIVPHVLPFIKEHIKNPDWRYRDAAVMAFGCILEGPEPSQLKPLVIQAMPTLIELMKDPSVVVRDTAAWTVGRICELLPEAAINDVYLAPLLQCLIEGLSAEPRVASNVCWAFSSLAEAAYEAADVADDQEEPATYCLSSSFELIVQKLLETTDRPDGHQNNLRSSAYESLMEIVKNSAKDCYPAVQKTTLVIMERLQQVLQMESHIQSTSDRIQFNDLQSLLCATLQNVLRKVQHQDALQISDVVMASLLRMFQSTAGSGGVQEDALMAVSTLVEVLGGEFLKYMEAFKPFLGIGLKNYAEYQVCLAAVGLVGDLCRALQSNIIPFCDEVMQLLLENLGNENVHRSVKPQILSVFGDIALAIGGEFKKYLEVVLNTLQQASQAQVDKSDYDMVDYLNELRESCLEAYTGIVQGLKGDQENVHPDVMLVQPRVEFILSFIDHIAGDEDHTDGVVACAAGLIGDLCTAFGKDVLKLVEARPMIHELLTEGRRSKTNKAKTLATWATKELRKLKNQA
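FRET biosensor Rango (snurportin 1 IBB between N-terminal EYFP and C-terminal Cerulean), 50 nM in PBS/1 mM DTT/0.02% Tween-20/0.1% BSA, preincubated 5 min RT with compound; 0.125 microM importin beta added, 45 min RT, CFP/YFP FRET ratio read.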
miR-21 FLuc = raises the signal of a miR-21 reporter; HeLa miR-21 FLuc reporter, luciferase, 48 h; Potency, µM (series often up to 38.3 µM), without a hit: at the highest dose reporter change, positive = more light; 340,000 tested, under 10 active; AID 2288; active = well fitted rising curve with a large enough effect; inconclusive = small, poorly fitted or top-dose-only effect; inactive = no such curve, though single readings can be large or run the other way;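 note: % of control where 0% means no effect; miR-21 action dims this reporter so a rising signal means less miR-21 action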
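HeLa cells stably expressing CMV-driven firefly luciferase with a downstream miR-21 binding sequence, endogenously expressing miR-21, were treated with titrations (up to about 40uM final) for 48 hours at 37 degree Celsius. Luciferase luminescence was read after lysis.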
* marks the source's active call; other numbers are inactive results; & = joins results of further samples. Not all compounds are listed; rates above refer to the full screens.

`CC1CCCC(C)N1CCCNC(=O)Cn1cc2c(n1)CCCC2` (stereo not drawn) gave Rango dissoc inh -4%, GLA inh pH 4.5 1, Rango complex inh inconclusive and miR-21 FLuc -2%.
For Nc1cc(=O)[nH]c2ncnn12 the results were Rango dissoc inh 2% and Rango complex inh -4.6%.
For C[C@H]1COC(=O)CCC/C=C\C[C@H](CC(=O)N(CCO)Cc2ccccc2)C(=O)N1 the results were Rango dissoc inh 2% and Rango complex inh 0.2%.
Screening Cc1cccc(/C=C/C(=O)c2ccc(NC3=NCCCS3)cc2)c1 returned Rango dissoc inh 0%, GLA inh pH 4.5 inconclusive, Rango complex inh inconclusive and miR-21 FLuc 0%.
Cc1ccc(Nc2nnc(SCC(=O)Nc3cccc(S(=O)(=O)N4CCCCC4)c3)s2)cc1 was read as Rango dissoc inh -6%, GLA inh pH 4.5 -2, Rango complex inh -2.6% and miR-21 FLuc -6%.
Screening O=c1c([N+](=O)[O-])cccn1Cc1ccccc1Cl returned Rango dissoc inh -5%, GLA inh pH 4.5 -5, Rango complex inh -1.2% and miR-21 FLuc 13%.
For COc1ccc2[nH]cc(C(=O)N3CCCCC3)c(=O)c2c1 the results were Rango dissoc inh 6%, GLA inh pH 4.5 -8, Rango complex inh -1.0% and miR-21 FLuc 0%.
`CC1CCN(C(=O)Cn2cnc3c(cnn3C(C)(C)C)c2=O)CC1` gave Rango dissoc inh 0%, GLA inh pH 4.5 2, Rango complex inh -4.5% and miR-21 FLuc -54%.
Screening Cc1nc2ccccn2c1C(=O)NCCCN1CCOCC1 returned Rango dissoc inh 1%, GLA inh pH 4.5 5, Rango complex inh -1.5% and miR-21 FLuc 1%.
For COc1ccc(NC(=O)CN(C)S(=O)(=O)c2ccc3c(c2)OCCO3)c2ncccc12 the results were Rango dissoc inh 2%, GLA inh pH 4.5 -18, Rango complex inh 0.0% and miR-21 FLuc -13%.
Screening CC(C)=NNc1nc(-c2ccccc2)cs1 returned Rango dissoc inh -7%, GLA inh pH 4.5 1, Rango complex inh -0.6% and miR-21 FLuc -21%.
Screening CSc1n[nH]c(NCc2ccccc2)n1 returned Rango dissoc inh -6%, GLA inh pH 4.5 -13, Rango complex inh -1.5% and miR-21 FLuc -12%.
For CCCc1nc(N)c(C#N)c(-c2cccnc2)c1CC the results were Rango dissoc inh 3%, GLA inh pH 4.5 -1, Rango complex inh 0.7% and miR-21 FLuc -3%.
Nc1nc(-c2ccc3c(c2)NC(=O)CO3)cs1 was read as Rango dissoc inh 3%, GLA inh pH 4.5 -11, Rango complex inh 0.7% and miR-21 FLuc -21%.
`O=C(Nc1ccc(S(=O)(=O)N2CCCCC2)cc1)c1ccncc1` gave Rango dissoc inh 6%, GLA inh pH 4.5 2, Rango complex inh 1.2% and miR-21 FLuc 10%.
Screening COc1cc(NC(=O)CSc2ncnc3c2cnn3Cc2ccccc2)cc(OC)c1 returned Rango dissoc inh -12%, GLA inh pH 4.5 -5, Rango complex inh inconclusive and miR-21 FLuc -2%.
`Cc1ccc(C(=O)NCC(=O)OCC(=O)Nc2ncc(C(F)(F)F)cc2Cl)cc1` gave Rango dissoc inh -1%, GLA inh pH 4.5 -7, Rango complex inh inconclusive and miR-21 FLuc -3%.
C/C=C/CSc1nc2c(c(=O)[nH]c(=O)n2C)n1C(C)C was read as Rango dissoc inh 0%, GLA inh pH 4.5 5, Rango complex inh 1.7% and miR-21 FLuc -35%.
`O=C(Cc1ccsc1)Nc1ccccc1F` gave Rango dissoc inh 16%, Rango complex inh -4.1% and miR-21 FLuc -15%.
Cc1cc(C)nc(NC(=O)CN2C(=O)c3ccccc3S2(=O)=O)n1 was read as Rango dissoc inh -22% and Rango complex inh 3.5%.
CCC(C)N(C(=O)CSc1ncnc2sccc12)C1CCS(=O)(=O)C1 (stereo not drawn) was read as Rango dissoc inh 17% and Rango complex inh 0.6%.
Screening Cc1cc(C)c(S(=O)(=O)NCCn2ccc3ccccc32)c(C)c1 returned Rango dissoc inh -20%, GLA inh pH 4.5 -2, Rango complex inh -2.5% and miR-21 FLuc -3%.
`COC(=O)C1=CO[C@@H](C)[C@H]2CN3CCc4c([nH]c5ccccc45)[C@@H]3C[C@H]12` gave Rango dissoc inh -21%, GLA inh pH 4.5 1&-9 and Rango complex inh -1.0%.
`Cn1c(CNC(=O)c2cccs2)n[nH]c1=S` gave Rango dissoc inh 7%, GLA inh pH 4.5 -1, Rango complex inh 5.8% and miR-21 FLuc -12%.
Screening COc1ccccc1C(=O)NCCC(=O)NNC(=O)Cn1ccc(C(F)(F)F)n1 returned Rango dissoc inh 2% and Rango complex inh -2.9%.
Screening COc1ccccc1N(CN1C(=O)c2ccccc2C1=O)C(=O)c1cccc(C)c1 returned Rango dissoc inh inconclusive, GLA inh pH 4.5 -9, Rango complex inh 5.8% and miR-21 FLuc 2%.
For CC1CN(c2nc3ccccc3nc2NS(=O)(=O)c2ccccc2)CC(C)O1 (stereo not drawn) the results were Rango dissoc inh 12% and Rango complex inh 5.2%.
`CCOC(=O)C1(CCc2ccccc2)CCN(Cc2ccccn2)CC1` gave Rango dissoc inh -7%, GLA inh pH 4.5 -1, Rango complex inh 0.3% and miR-21 FLuc -1%.
`Cn1c(=O)c(NC(=O)c2ccccc2)c2n(c1=S)CCCCC2` gave Rango dissoc inh -6%, GLA inh pH 4.5 -4, Rango complex inh 6.1% and miR-21 FLuc -2%.
`Fc1cccc(/C=N/Nc2nccnc2Cl)c1` gave Rango dissoc inh 0%, Rango complex inh -0.8% and miR-21 FLuc -53%.
`COc1ccc(/C=N/Nc2nc(Nc3ccccc3)nc(N3CCCC3)n2)cc1` gave Rango dissoc inh -10%, GLA inh pH 4.5 0, Rango complex inh -3.3% and miR-21 FLuc 11%.
CSc1ccc(C(=O)c2[nH]c(=O)[nH]c2C)cc1 was read as Rango dissoc inh -11%, GLA inh pH 4.5 8 and Rango complex inh 3.8%.
For Nc1nc(N)n(-c2ccccc2)c(=Nc2ccccc2)n1 the results were Rango dissoc inh -8%, Rango complex inh 2.2% and miR-21 FLuc -1%.
Screening O=C(NC1CCCC1)C(c1ccncc1)N(C(=O)c1csnn1)c1ccccc1 (stereo not drawn) returned Rango dissoc inh -10%, Rango complex inh inconclusive and miR-21 FLuc 1%.
`Cc1cccc(NS(=O)(=O)c2c(C(=O)N3CCCC3)c(C)n(C)c2C)c1` gave Rango dissoc inh 6%, Rango complex inh -0.8% and miR-21 FLuc 1%.
CCn1c(SCC(=O)N/N=C/C=C/c2ccccc2[N+](=O)[O-])nnc1-c1ccc(Cl)cc1 was read as GLA inh pH 4.5 -15 and miR-21 FLuc 1%.
`N#Cc1ccsc1NC(=O)CN1CCOCC1` gave Rango dissoc inh 4%, GLA inh pH 4.5 -1, Rango complex inh -0.2% and miR-21 FLuc 0%.
`COc1ccc2nc(C)cc(SCC(=O)N/N=C/c3ccco3)c2c1` gave Rango dissoc inh 4%, Rango complex inh 0.5% and miR-21 FLuc 1%.
Screening C=CCNC(=O)c1ccccc1CCc1ccccc1 returned Rango dissoc inh 12%, GLA inh pH 4.5 12, Rango complex inh -5.1% and miR-21 FLuc 3%.
Screening COc1ccc2nc(N3C(=O)/C(=C/c4ccccc4)NC3=S)sc2c1 returned Rango dissoc inh inconclusive, GLA inh pH 4.5 -14, Rango complex inh inconclusive and miR-21 FLuc -4%.
Screening Cc1ccc(N2C(=S)N=C(Nc3ccccc3C)C23CCOC(C)(C)C3)cc1 (stereo not drawn) returned Rango dissoc inh 7%, GLA inh pH 4.5 -21, Rango complex inh -2.3% and miR-21 FLuc 0%.
CSc1nnc2n(Cc3ccccc3)c(=O)c3c4c(sc3n12)COC(C(C)C)C4 (stereo not drawn) was read as GLA inh pH 4.5 9 and miR-21 FLuc -1%.
For COc1ccc(N2CCN(C(=O)/C(C#N)=C/c3ccccc3)CC2)cc1 the results were Rango dissoc inh -17%, GLA inh pH 4.5 -3, Rango complex inh 0.7% and miR-21 FLuc -8%.
`COc1ccc(NC(=O)CN(C)C(=O)c2ccc(N3CCCC3)c([N+](=O)[O-])c2)cc1` gave Rango dissoc inh -2% and Rango complex inh 1.9%.
`COc1ccc(-c2cc(C(=O)N3CCCC(C(F)(F)F)C3)c3ccccc3n2)cc1OC` (stereo not drawn) gave Rango dissoc inh -19% and Rango complex inh -1.1%.
`CC(=O)Nc1ccc(/C(C)=N/NC(=O)c2ccncc2)cc1` gave Rango dissoc inh 16%, GLA inh pH 4.5 1, Rango complex inh -0.2% and miR-21 FLuc -8%.
Screening CN(CC(=O)Nc1ccc(C#N)cc1)Cc1ccc(Cl)cc1 returned Rango dissoc inh 2%, GLA inh pH 4.5 0, Rango complex inh -1.5% and miR-21 FLuc -1%.
CCCC(=O)c1c[nH]c(C(=O)NCCCN2CCOCC2)c1 was read as Rango dissoc inh 1%, GLA inh pH 4.5 -4, Rango complex inh 0.0% and miR-21 FLuc 0%.
`Cc1ccc2cccc(S(=O)(=O)Nc3ccc4c(c3)OCO4)c2n1` gave Rango dissoc inh -5%, GLA inh pH 4.5 -1, Rango complex inh -0.8% and miR-21 FLuc -2%.
For CC1(C)CC(=O)C2=C(C1)OC(=O)C2(NC(=O)c1cccs1)C(F)(F)F (stereo not drawn) the results were Rango dissoc inh -4%, GLA inh pH 4.5 1, Rango complex inh inconclusive and miR-21 FLuc -4%.

Reprinted at random: 3 entries already listed.
`COc1ccc(-c2cc(C(=O)N3CCCC(C(F)(F)F)C3)c3ccccc3n2)cc1OC` (stereo not drawn) gave Rango dissoc inh -19% and Rango complex inh -1.1%.
Screening CN(CC(=O)Nc1ccc(C#N)cc1)Cc1ccc(Cl)cc1 returned Rango dissoc inh 2%, GLA inh pH 4.5 0, Rango complex inh -1.5% and miR-21 FLuc -1%.
Screening Cc1ccc(N2C(=S)N=C(Nc3ccccc3C)C23CCOC(C)(C)C3)cc1 (stereo not drawn) returned Rango dissoc inh 7%, GLA inh pH 4.5 -21, Rango complex inh -2.3% and miR-21 FLuc 0%.

Other entries.
Screening CCCNC(=S)Nc1c(C)n(C)n(-c2ccccc2)c1=O returned Rango dissoc inh -5%, GLA inh pH 4.5 -1, Rango complex inh 7.8% and miR-21 FLuc 1%.
`CCOc1ccc(NC(=O)CN(C)C(=O)c2ccc(C)c(S(=O)(=O)N3CCCCC3)c2)cc1OCC` gave Rango dissoc inh -5%, Rango complex inh -0.9% and miR-21 FLuc 0%.
For CCN1CCN(C(=O)C2CCN(S(=O)(=O)N3CCC4(CC3)OCCO4)CC2)CC1 the results were Rango dissoc inh 17%, Rango complex inh -2.8% and miR-21 FLuc -1%.
`Cc1cc(NC(=O)COC(=O)c2cccc(S(=O)(=O)N3CCOCC3)c2)no1` gave Rango dissoc inh 3%, GLA inh pH 4.5 1, Rango complex inh -3.8% and miR-21 FLuc -5%.
Screening CCc1ccccc1NC(=O)c1nnn(CC(=O)Nc2cccc(C)c2C)c1N returned Rango dissoc inh -2%, GLA inh pH 4.5 -3, Rango complex inh 2.0% and miR-21 FLuc -1%.
Screening COc1ccc(C(=O)N2CCCC(C(=O)N3CCCCCC3)C2)cc1 (stereo not drawn) returned Rango dissoc inh -3%, GLA inh pH 4.5 3, Rango complex inh inconclusive and miR-21 FLuc -1%.
Screening CN(C)C(=O)COc1ccc(Oc2ccccc2)cc1 returned Rango dissoc inh -16%, GLA inh pH 4.5 3, Rango complex inh inconclusive and miR-21 FLuc -38%.
Cc1ccc(S(=O)(=O)NCCC(=O)OCC(=O)N(C)c2ccccc2)cc1 was read as Rango dissoc inh 4% and Rango complex inh 0.4%.
COc1ccc(S(=O)(=O)N(Cc2ccccc2)c2ccccc2C(=O)O)cc1 was read as Rango dissoc inh 10%, Rango complex inh 3.6% and miR-21 FLuc 1%.
`O=C(COC(=O)CNC(=O)c1ccc(Cl)cc1Cl)NNC(=O)c1ccccc1F` gave Rango dissoc inh 9% and Rango complex inh 1.0%.
Screening O=CN(c1ccccc1)c1ccc2ccccc2c1 returned Rango dissoc inh -5%, GLA inh pH 4.5 4, Rango complex inh -0.6% and miR-21 FLuc -18%.
